Source: PubChem
Rango-impB inh – prevents formation of the Rango-importin beta complex; Rango CFP/YFP FRET sensor + importin beta, 45 min; 0.031% of 340,000 active; Potency, µM (series often up to 92.2 µM), for the others: at the top dose inhibition of complex formation; Q14974; active = rising FRET ratio curve, often small or poorly fitted; inconclusive = mostly compound fluorescence or quenching in the first reads; inactive = flat curves in all reads;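 note: potency is the fitted concentration of half-maximal effect; 0% = DMSO wells and 100% = buffer wells lacking importin beta; nearly all actives have a fitted effect of over 15% in size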
Target sequence (Q14974 whole entry, looked up): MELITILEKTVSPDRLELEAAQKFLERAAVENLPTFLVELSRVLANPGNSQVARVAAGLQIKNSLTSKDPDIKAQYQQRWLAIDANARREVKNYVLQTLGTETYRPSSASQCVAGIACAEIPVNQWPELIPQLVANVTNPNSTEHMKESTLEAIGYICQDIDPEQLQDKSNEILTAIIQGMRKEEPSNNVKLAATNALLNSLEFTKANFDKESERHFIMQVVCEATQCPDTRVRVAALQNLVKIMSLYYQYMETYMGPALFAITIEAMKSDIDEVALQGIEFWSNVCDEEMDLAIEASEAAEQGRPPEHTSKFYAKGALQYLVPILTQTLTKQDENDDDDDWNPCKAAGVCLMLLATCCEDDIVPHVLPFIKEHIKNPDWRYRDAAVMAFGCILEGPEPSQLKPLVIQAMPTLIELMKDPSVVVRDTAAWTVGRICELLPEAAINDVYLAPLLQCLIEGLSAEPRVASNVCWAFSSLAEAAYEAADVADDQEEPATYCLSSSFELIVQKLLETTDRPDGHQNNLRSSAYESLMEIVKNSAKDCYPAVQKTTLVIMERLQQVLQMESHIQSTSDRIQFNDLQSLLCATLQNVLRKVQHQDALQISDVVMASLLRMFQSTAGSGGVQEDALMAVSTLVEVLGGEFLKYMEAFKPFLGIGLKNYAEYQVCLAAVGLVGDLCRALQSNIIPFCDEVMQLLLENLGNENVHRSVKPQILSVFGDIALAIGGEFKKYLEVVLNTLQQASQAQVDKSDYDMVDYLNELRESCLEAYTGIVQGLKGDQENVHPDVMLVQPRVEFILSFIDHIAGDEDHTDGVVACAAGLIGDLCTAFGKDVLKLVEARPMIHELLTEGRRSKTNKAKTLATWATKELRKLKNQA
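FRET biosensor Rango (snurportin 1 IBB between N-terminal EYFP and C-terminal Cerulean), 50 nM in PBS/1 mM DTT/0.02% Tween-20/0.1% BSA, preincubated 5 min RT with compound; 0.125 microM importin beta added, 45 min RT, CFP/YFP FRET ratio read.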
miR-21 FLuc – raises the signal of a miR-21 reporter; HeLa miR-21 FLuc reporter, luciferase, 48 h; Potency, µM (doses to about 38.3 µM), inactives show top-dose reporter change, positive = more light; 340,000 tested, under 10 active; active = well fitted rising curve with a large enough effect; inconclusive = small, poorly fitted or top-dose-only effect; inactive = no such curve, though single readings can be large or run the other way;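 note: % of control where 0% means no effect; miR-21 action dims this reporter so a rising signal means less miR-21 action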
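HeLa cells endogenously expressing miR-21, stably carrying CMV-driven firefly luciferase with a downstream miR-21 binding site, 2000 cells/well. Titrations up to approximately 40 uM, 48 hours; luciferase luminescence read.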
Rango release inh – prevents RanGTP from dissociating the Rango-importin beta complex; O95149+P62826; Biochemical FRET Rango-importin beta, RanGTP-induced dissociation; Potency, µM (series often up to 46.1 µM), inactives show top-dose activity change, negative = inhibition; 0.071% of 340,000 active; AID 540253; active means falling FRET ratio curve, often poorly fitted, with flat reads before Ran was added; inconclusive means other falling curves, or compound fluorescence or quenching; inactive means flat or rising ratio curve;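 note: potency is the fitted concentration of half-maximal effect; % of control where 0% means no effect; nearly all actives have a fitted effect of over 45% in size; -100% = wells without RanGTP and RCC1; the record marks most hits as doubtful in a second field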
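Rango/importin beta premix (0.1/0.25 uM final), PBS + 1 mM DTT + 0.02% Tween-20 + 0.1% BSA; cpd 5 min RT; FRET pre-read; + RanGTP-RCC1 (0.6 uM Ran, 2 mM GTP, 0.2 uM RCC1); 45 min RT; FRET post-read, ex 430, em 486/530 nm.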
GLA inh pH 4.5 – alpha-galactosidase A (human) inhibition, pH 4.5 | activity change, negative = inhibition, % at 105 µM | purified enzyme, 4-MU-alpha-Gal fluorescence, pH 4.5 | P06280 | 230,000 tested, under 10 active; inconclusive = small, poorly fitted or top-dose-only inhibition, or a rising curve; inactive = flat fitted curve, though single readings scatter; no compound was filed as active;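 note: 0% = full activity with enzyme and -100% = basal without enzyme; dose as in the result columns while the protocol names 77 µM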
* = called active by the depositor; u = inconclusive; x = not tested or not shown; & = joins results of further samples.

SMILES	Rango-impB inh	miR-21 FLuc	Rango release inh	GLA inh pH 4.5
COc1ccc(NC(=O)CN2C(=O)COc3ccc(S(=O)(=O)N4CCCCC4)cc32)c(OC)c1	-0.2%	2.0%	11.3%	x
Cc1ccccc1-n1nnnc1SC1CCOC1=O (stereo not drawn)	-0.1%	-2.1%	3.5%	0.0
COc1cccc(OCCNC(=O)c2cccc(OC)c2)c1	3.6%	-10.1%	0.8%	-3.8
COc1ccc(C2=NN(C(=O)CSc3nc4ncc(Cl)cc4[nH]3)C(c3ccco3)C2)cc1 (stereo not drawn)	u	-10.5%	5.2%	-9.3
COc1ccc(NC(=O)CSc2nnc(C)c(=O)n2N)cc1	u	6.3%	-1.5%	x
COCCNC(=O)c1ccc2c(c1)ncn2-c1ccc(F)c(F)c1	-0.5%	-93.8%	0.1%	5.7
CN(CC(=O)Nc1ccccc1Br)C(=O)c1ccccc1OCc1ccc(F)cc1	-7.5%	x	9.7%	x
O=C(Cn1cc2c(n1)CCCC2)NCc1cccnc1	2.3%	-1.9%	28.6%	19.3
COc1cccc(NC(=O)N2CCCc3ccccc32)c1	-1.3%	-37.5%	-4.6%	7.7
CCN1CCN(C(=S)Nc2ccsc2C(=O)OC)CC1	0.7%	0.2%	-4.5%	0.9
Nc1ccccc1C(=O)N1CCC(O)(c2ccc(Cl)cc2)CC1	2.6%	-5.4%	-3.4%	x
O=C(Oc1c(-c2ccccc2)c(=O)n2c3c(cccc13)CC2)c1ccc(Cl)cc1	1.2%	-4.2%	12.0%	0.1
O=C(NC(=S)NNS(=O)(=O)c1ccc(Cl)cc1)c1cccnc1	3.7%	-0.5%	-7.6%	11.6
COc1ccccc1NS(=O)(=O)c1cccc(NC(=O)Nc2ccc(Cl)cc2)c1	3.4%	u	-1.0%	0.5
Cc1cccc(NC(=O)CSc2nc3nc(C)cc(C)n3n2)c1	1.3%	-10.7%	0.9%	x
O=C(Nc1ccc2c(c1)OCCO2)C1CCCN(c2ncccn2)C1 (stereo not drawn)	-0.3%	7.0%	-4.3%	3.7
Cc1cc(OC(C)C(=O)N/N=C/CC(C)c2ccccc2)ccc1Cl (stereo not drawn)	-0.2%	-3.3%	-15.5%	5.7
CCOC(=O)c1ccccc1NC(=O)Cc1ccc(S(=O)(=O)N2CCCC2)s1	2.9%	x	0.7%	x
O=C(N/C=C/c1ccccc1)Nc1ccc(Cl)cc1	-1.3%	-39.4%	-0.9%	2.0
CC(C)(C)C(C(=O)O)N1CCS(=O)(=O)CC1 (stereo not drawn)	-7.5%	4.0%	9.8%	-17.1
COCC(C)N1CCC(n2nccc2NC(=O)c2ccccc2Cl)CC1 (stereo not drawn)	-0.7%	x	-3.8%	x
COc1ccc(NC(=O)Cn2c3ccccc3c3nc4n(c(=O)c32)CCS4)cc1	-1.9%	-9.2%	0.3%	2.6
O=C(CN1CCN(Cc2ccccc2)CC1)N/N=C/C=C/c1ccco1	-5.9%	-12.2%	-10.6%	1.1
CCc1ccc(S(=O)(=O)NCCc2cn3ccccc3n2)s1	2.0%	-5.3%	1.2%	5.1
Cc1cccc(NC(=O)CSc2nccn2Cc2ccco2)c1	0.7%	-48.7%	-0.9%	x
CC(C)(Oc1ccc(-c2ccco2)cc1)C(=O)O	x	-0.8%	x	0.2
COCCNC(=O)CN1c2ccccc2CC1C (stereo not drawn)	4.9%	-0.5%	9.9%	4.2
CC(NC(=O)CCNS(=O)(=O)c1ccccc1)c1ccccc1 (stereo not drawn)	2.5%	2.1%	12.8%	x
CCNCc1ccc(OCc2cccs2)c(OCC)c1	0.4%	-2.2%	6.6%	2.1
CCOC(=O)N1CCC(NC(=O)CSCc2nc(-c3ccc(C)cc3)oc2C)CC1	0.2%	-0.3%	-11.2%	x
CC1C2Cn3c(nc4ccccc43)C1N(C(C)C)O2 (stereo not drawn)	-1.4%	0.5%	28.6%	2.4
Cc1ccc2cc3c(nc2c1)N(Cc1ccco1)CC3	0.7%	-19.8%	1.3%	14.1
CCOc1ccc(NC(=O)C2CCCN(S(=O)(=O)c3c(C)nn(C)c3C)C2)cc1 (stereo not drawn)	-3.3%	-1.9%	1.0%	1.4
Cc1ccc(/C=C/C(=O)Nc2cc(S(=O)(=O)N3CCOCC3)ccc2N2CCOCC2)cc1	0.0%	x	-6.4%	x
O=C(NC1CCCCC1)c1ccc(N2CCCC2=O)cc1	0.3%	-51.6%	-1.7%	7.0
COC(=O)c1cn(C(=O)c2ccc(C)cc2)c2ccccc12	5.3%	-1.5%	u	1.0
CCOc1ccc(NC(=O)c2cc3ccccc3cc2OC)cc1	u	-20.0%	-29.8%	x
CCN(CC)c1ccc(NC(=O)Nc2cccc(C(C)=O)c2)cc1	2.3%	-13.9%	3.6%	2.8
COc1cccc(C(=O)Nc2ccc(C(=O)NCC3CCCO3)cc2)c1 (stereo not drawn)	-1.7%	x	8.9%	x
CC(Sc1nnc(C2CC2)n1C1CC1)C(=O)NCc1cccs1 (stereo not drawn)	3.2%	x	-16.9%	x
COc1ccc(/C(O)=C/Sc2nnc(Cc3ccccc3)o2)cc1	1.4%	2.5%	-9.2%	-1.2
CCc1nnc(NC(=O)CSc2nnc(-c3cc4ccccc4cc3O)n2CCOC)s1	u	-4.8%	-0.7%	12.8
COc1ccc(NC2=Nc3ccccc3N3C2=Nc2c(c(C)nn2-c2ccc(C)cc2)C3c2cccnc2)cc1 (stereo not drawn)	u	-3.3%	-12.8%	-11.0
Cc1cccc2sc(NC(=O)C3CCCN(S(=O)(=O)c4cccc5nonc45)C3)nc12 (stereo not drawn)	4.6%	-4.5%	-18.5%	-12.2
CCOc1ccc(S(=O)(=O)NCCC(=O)OCN2C(=O)c3ccccc3C2=O)cc1	4.3%	-3.0%	-1.3%	3.7
O=S(=O)(Nc1ccc(Cc2ccncc2)cc1)c1ccc(Cl)s1	1.2%	2.3%	1.0%	1.2
Cc1ccc(C(=O)n2cnc3ccccc32)cc1C	-1.3%	-1.0%	-4.4%	x
COC(=O)c1cc(NCc2c(F)cccc2Cl)ccc1N1CCOCC1	u	-3.5%	u	2.0
O=C(NC(C(=O)O)c1ccccc1)c1ccc(S(=O)(=O)N2CCOCC2)cc1 (stereo not drawn)	-2.6%	-5.5%	-9.1%	3.9
Cc1nc(NC(=O)C2CCCC2)sc1Cc1ccc2c(c1)OCO2	-1.6%	-78.0%	-12.6%	-8.3
CC(=O)N1c2c(cc(Br)cc2S(=O)(=O)N2CCN(C(=O)c3ccco3)CC2)CC1C (stereo not drawn)	0.3%	-2.9%	2.7%	-8.7
COc1cc(CNn2nnnc2N)ccc1OCC(=O)NC(C)(C)C	-1.0%	0.4%	-13.0%	0.6
Cc1cc2nc(C)n(CCCNC(=O)Nc3cccc4ccccc34)c2cc1C	1.7%	16.6%	0.4%	-8.6
CCOc1ccc2c(c1)c(N=Nc1cccc(C(=O)O)c1)c(O)n2C	-0.3%	-88.9%	0.9%	4.0
O=C(Nc1cccc(NC(=O)c2ccccc2Cl)c1)c1ccco1	0.0%	-3.7%	-6.7%	x
O=[N+]([O-])c1cc(S(=O)(=O)N2CCCC2)ccc1NCCCN1CCOCC1	2.6%	-0.1%	-8.9%	-2.4
Cc1ccc2nc(CSc3nnc4ccccn34)cc(=O)n2c1	3.8%	-13.3%	-0.7%	4.8
COc1cc(/C=C(/C#N)c2ccc(F)cc2)ccc1Oc1ccc([N+](=O)[O-])cn1	-5.0%	10.2%	-0.3%	-2.5
Cc1ccc2oc(C(=O)N3CCN(C)C[C@@H]3C(C)C)c(C)c2c1	-0.4%	-27.2%	-3.1%	x
CCN(CCCNC(=O)CN(C)S(=O)(=O)c1cccc2nsnc12)c1ccccc1	4.5%	-3.5%	0.8%	-7.1
Next part:
SMILES	Rango-impB inh	miR-21 FLuc	Rango release inh	GLA inh pH 4.5
Cc1ccccc1CN1CCC(CNC(=O)C2CCCN(c3ncnc4c3nc3n4CCCCC3)C2)CC1 (stereo not drawn)	-1.8%	17.4%	u	x
Cc1cccc(C(=O)Nc2nnc(Cc3c[nH]c4ccccc34)s2)c1	-3.0%	6.5%	-11.4%	2.5
Cc1ccc(C(=O)N2CCCC2)cc1Br	-3.4%	0.0%	-8.9%	-0.5
COC(=O)c1cc(O)cc(OC)c1Oc1cc(C)cc(O)c1C(=O)O	u	u	-14.1%	-1.5
COc1ccc(CCCNC(=O)C2CCC(=O)N(CCc3cccc(F)c3)C2)cc1 (stereo not drawn)	0.0%	-1.2%	-3.9%	x
CC1CCN(CCC(=O)NN)CC1	0.3%	-0.2%	2.3%	-1.4
N#CCC(=O)Nc1ccc(C(=O)N2CCN(S(=O)(=O)c3ccc4ccccc4c3)CC2)cc1	-0.3%	-7.3%	-6.2%	x
COc1cccc(NC(=O)C2CC(=O)OC23CCOC(C)(C)C3)c1 (stereo not drawn)	-3.8%	-6.7%	-18.1%	x
CCOC(=O)C1CCN(C(=O)c2c(C)oc3c2C(=O)c2ccccc2C3=O)CC1	3.2%	29.6%	-9.3%	-3.8
Cc1nnc(NC(=O)Oc2ccccc2)s1	-4.2%	-0.8%	6.7%	8.2
O=C(NCCC(=O)N1CCN(c2ccccn2)CC1)c1ccc(Cl)cc1	-0.3%	x	40.9%	x
Cc1ccc(NC(=O)CN2C(=O)S/C(=C/c3ccc(O)c([N+](=O)[O-])c3)C2=O)cc1C	u	2.1%	-7.8%	-1.4
Cc1cccc(N(C(=O)CNC(=O)c2cccs2)C(C(=O)NC2CCCC2)c2cccnc2)c1 (stereo not drawn)	5.0%	-2.1%	14.4%	4.9
CNC(=O)N(O)C1N(NC(=O)Nc2ccccc2)C(=S)SC1(C)C (stereo not drawn)	0.6%	x	12.7%	x
CCOC(=O)C1CCCN(S(=O)(=O)c2cccs2)C1 (stereo not drawn)	7.7%	-8.1%	-9.0%	-0.7

Three compounds from above, arranged by their value in Rango-impB inh, high to low:
SMILES	Rango-impB inh	miR-21 FLuc	Rango release inh	GLA inh pH 4.5
CCOC(=O)C1CCCN(S(=O)(=O)c2cccs2)C1 (stereo not drawn)	7.7%	-8.1%	-9.0%	-0.7
O=C(NCCC(=O)N1CCN(c2ccccn2)CC1)c1ccc(Cl)cc1	-0.3%	x	40.9%	x
Cc1cccc(C(=O)Nc2nnc(Cc3c[nH]c4ccccc34)s2)c1	-3.0%	6.5%	-11.4%	2.5

(more compounds)
SMILES	Rango-impB inh	miR-21 FLuc	Rango release inh	GLA inh pH 4.5
COc1cccc(-c2nc(N3CCCCC3)c3ccccc3n2)c1O	0.3%	x	6.6%	x
CN=C1S/C(=C\c2ccc(SC)cc2)C(=O)N1C	-3.6%	-33.4%	-9.2%	x
COc1ccc(OC)c2[nH]c(=O)c(CCNC(=O)c3cc4ccccc4o3)cc12	-3.8%	-6.6%	-6.3%	1.3
CCOc1ccc(-n2c(Cc3cc(=O)[nH]c(=O)[nH]3)nnc2SCc2cccnc2)cc1	x	-5.8%	x	4.9
Cc1ccc(NC(=O)CN2CCc3cc4c(cc3C2)OCCCO4)cc1	-0.4%	-8.8%	-3.1%	x
O=C(NCc1ccco1)c1ccc(=O)oc1	0.4%	-0.2%	17.3%	7.4
S=c1[nH]nc(-c2ccncc2)n1/N=C/C(Cl)=C\c1ccccc1	0.9%	-5.9%	-14.7%	-24.5
c1ccc(-n2nnc3ccccc32)cc1	-2.5%	-11.5%	-0.5%	x
COc1ccc(CCNc2c([N+](=O)[O-])ncn2C)cc1OC	1.5%	4.7%	-0.2%	-2.9
COCCCNC(=S)NC(=O)c1ccccc1	-1.4%	-36.8%	0.3%	-5.3
COc1cc(OC)cc(C(=O)Nc2ccccc2C(=O)N2CCCC2)c1	2.2%	-38.3%	1.0%	1.5
O=C(/C=C/c1ccc(OCCCF)cc1)NCc1cccc(Cl)c1	0.8%	-0.7%	-9.6%	1.7
CN1CCN(C(=O)c2ccc3c(c2)N(Cc2cccc(Cl)c2)C(=O)c2ccccc2S3(=O)=O)CC1	-6.0%	-1.8%&4.8%	27.5%	x
O=C(CN1CCN(C(=O)C2CCCO2)CC1)Nc1cc(Cl)ccc1Cl (stereo not drawn)	-1.1%	-0.1%	-4.4%	x
C=CCn1c(=O)c2ccccc2n2c(SCC(=O)NCC)nnc12	1.5%	-0.4%	-4.0%	x
NC(=O)CN1CCOCCOCCOCCOCCOCC1	3.5%	-1.8%	-16.7%	5.9
COc1ccccc1OCC(=O)Nc1ccc(C(N)=O)cc1	1.7%	-8.3%	-8.3%	-5.8

An excerpt; the hit share may differ from the screen's.
